Screens (PubChem)
Insulin prom inh – TRM-6 insulin promoter activity inhibition | TRM-6 cells (human fetal islet line), insulin promoter-eGFP reporter, imaging; reporter expression induced with tamoxifen | inhibition, % at 2 µM | 130,000 compounds, 0.9% hits | AID 1273;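 active means inhibition above the mean plus 3 SD, with well images judged a real hit on visual review, cut at about 60% in these data, passing the limit was not always enough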
GALR2 ag – activates the human galanin receptor 2; O43603; GALR2-expressing cells, agonist activation read-out; activation, %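 (tested at 5 µM)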; 140,000 compounds, 0.48% hits;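 active means above mean plus 3 SD of all compounds, about 5% in these data, not always enough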;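 further: 0% = vehicle buffer wells and 100% = reference agonist at full effect; tested in CHO reporter cells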
RGS16-Gao HTS – RGS16-Galphao interaction regulator (human) | binding response (% of control), % at 10 µM | 220,000 compounds, 0.38% hits | bead-based flow cytometry RGS16-Galphao binding, fluorescence; actives lie on both sides;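 active means below 25% or above 175%, edge rows of some plates excepted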;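 further: Galphao activated by GDP with aluminum fluoride before binding; 100% = wells without compound and 0% = beads without RGS; some results beyond the cut were filed as inactive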
Target sequence (O15492 whole entry, looked up): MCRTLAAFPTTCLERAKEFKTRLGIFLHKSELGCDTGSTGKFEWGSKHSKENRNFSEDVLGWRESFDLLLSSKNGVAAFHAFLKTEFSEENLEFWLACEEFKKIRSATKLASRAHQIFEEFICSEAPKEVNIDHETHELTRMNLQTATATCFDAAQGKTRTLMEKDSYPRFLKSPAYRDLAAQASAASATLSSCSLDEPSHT
Target sequence (P09471 whole entry, looked up): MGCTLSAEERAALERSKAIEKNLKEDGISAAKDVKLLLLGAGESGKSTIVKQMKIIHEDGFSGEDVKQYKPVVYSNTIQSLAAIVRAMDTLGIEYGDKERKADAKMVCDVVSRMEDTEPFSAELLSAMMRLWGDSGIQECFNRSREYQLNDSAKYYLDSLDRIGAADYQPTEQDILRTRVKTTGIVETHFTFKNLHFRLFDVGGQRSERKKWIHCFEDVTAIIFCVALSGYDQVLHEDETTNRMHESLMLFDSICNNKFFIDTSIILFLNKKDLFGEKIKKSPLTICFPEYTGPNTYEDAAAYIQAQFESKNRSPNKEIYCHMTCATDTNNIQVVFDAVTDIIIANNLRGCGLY
PKD1 inh – inhibitors of human PKD1 kinase; PKD1 kinase fluorescence polarization assay; 200,000 compounds, 0.056% hits; Q15139; inhibition, %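 (about 10 µM by stock and volumes)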;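 active means inhibition of 50% or more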;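 further: controls were vehicle for no effect and a reference inhibitor for full effect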
HSV replic up – HSV replication enhancement. HSV replication augmentation in cells, fold increase. 220,000 compounds, 0.005% hits. AID 1956. maximum fold increase;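 active means peak rise of 1.5-fold or more in the series; tested in PC3 cells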;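 further: first round at 10 µM; read as green reporter fluorescence; hits show the peak of a series up to 25 µM; 1 = signal of infected wells without compound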
Insulin prom inh cell count – recorded beside Insulin prom inh, whose call it bears; normalized cell count, %; measured here: cell count, toxicity; reference of the scale not given here;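 cells exposed to compound for 48 h; stained nuclei by imaging scaled within each plate; lower means fewer cells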
HSV replic up primary fold – recorded beside HSV replic up, whose call it bears; fold increase; compound at 10 µM; measured here: primary screen fold increase 10 uM; tested in PC3 cells;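 GFP signal in the first replicate; 1 = infected wells without compound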
An asterisk follows results filed as active; i = inactive; . = not tested or not shown; & = joins results of further samples. Some of the compounds tested. The share of hits here may be higher or lower than overall.

SMILES	Insulin prom inh	Insulin prom inh cell count	GALR2 ag	RGS16-Gao HTS	PKD1 inh	HSV replic up	HSV replic up primary fold
C=C1c2cccc(O)c2C(O)=C2C(=O)[C@]3(O)C(O)=C(C(N)=O)C(=O)[C@@H](N(C)C)[C@@H]3[C@@H](O)[C@H]12	.	.	.	96	8	i	1
COc1ccccc1OCCNCC(O)COc1cccc2[nH]c3ccccc3c12 (centres undefined)	.	.	.	99&103	.	i	0.54
COc1ccc2ccc(=O)oc2c1	38	113	0.1	104	-13	i	0.76
Cc1cccc(C)c1NC(=O)C1CCCCN1C (centres undefined)	-14	102	-1.2	101	-3	i	0.7
COc1ccc2nc(NC(=O)Nc3ccccc3)sc2c1	10	136	-1.9	104	-5	i	0.76
O=c1cc(-c2ccc(O)cc2)oc2cc(O[C@@H]3O[C@H](CO)[C@@H](O)[C@H](O)[C@H]3O[C@@H]3OC[C@](O)(CO)[C@H]3O)cc(O)c12	20	81	-1.1	97	-1	i	0.77
CCCCC1C(=O)N(c2ccccc2)N(c2ccccc2)C1=O	13	96	-2.0	.	-5	i	1
CCCCCCCC/C=C\CCCCCCCC(=O)O	.	.	.	108	.	i	1.1
O=C(Nc1ccc(C(=O)O)c(O)c1)c1ccccc1	.	.	.	97	.	i	1
NC(N)=NC(=O)Cc1c(Cl)cccc1Cl	-52	81	-0.5	212	-2	i	0.69
Cc1[nH]c2ccccc2c1/C=N/NC(N)=S	.	.	.	100	.	i	0.96
CCCCOc1ccc(CC(=O)NO)cc1	-36	96	0.3	104	-5	i	0.78
CC[C@]1(O)C[C@@H]2CN(CCc3c([nH]c4ccccc34)[C@@](C(=O)OC)(c3cc4c(cc3OC)N(C)[C@H]3[C@@](O)(C(=O)OC)[C@H](OC(C)=O)[C@]5(CC)C=CCN6CC[C@]43[C@@H]65)C2)C1	.	.	.	103	.	i	0.63
CN(C)CCOc1ccccc1Cc1ccccc1	-14	104	1.1	107	-9	i	0.92
CNc1c2c(nn1C)CCCC2	39	67	-2.5	108	-3	i	0.79
C[C@@H]1C[C@H]2[C@@H]3C[C@H](F)C4=CC(=O)C=C[C@]4(C)[C@@]3(F)[C@@H](O)C[C@]2(C)[C@@]1(O)C(=O)COC(=O)C(C)(C)C	-29	80	1.7	98	-5	i	0.88

Ordered by count of non-hydrogen atoms (falling): some entries from above
SMILES	Insulin prom inh	Insulin prom inh cell count	GALR2 ag	RGS16-Gao HTS	PKD1 inh	HSV replic up	HSV replic up primary fold
CC[C@]1(O)C[C@@H]2CN(CCc3c([nH]c4ccccc34)[C@@](C(=O)OC)(c3cc4c(cc3OC)N(C)[C@H]3[C@@](O)(C(=O)OC)[C@H](OC(C)=O)[C@]5(CC)C=CCN6CC[C@]43[C@@H]65)C2)C1	.	.	.	103	.	i	0.63
C[C@@H]1C[C@H]2[C@@H]3C[C@H](F)C4=CC(=O)C=C[C@]4(C)[C@@]3(F)[C@@H](O)C[C@]2(C)[C@@]1(O)C(=O)COC(=O)C(C)(C)C	-29	80	1.7	98	-5	i	0.88
COc1ccccc1OCCNCC(O)COc1cccc2[nH]c3ccccc3c12 (centres undefined)	.	.	.	99&103	.	i	0.54
CCCCC1C(=O)N(c2ccccc2)N(c2ccccc2)C1=O	13	96	-2.0	.	-5	i	1
COc1ccc2nc(NC(=O)Nc3ccccc3)sc2c1	10	136	-1.9	104	-5	i	0.76
CCCCCCCC/C=C\CCCCCCCC(=O)O	.	.	.	108	.	i	1.1
O=C(Nc1ccc(C(=O)O)c(O)c1)c1ccccc1	.	.	.	97	.	i	1
Cc1cccc(C)c1NC(=O)C1CCCCN1C (centres undefined)	-14	102	-1.2	101	-3	i	0.7
CCCCOc1ccc(CC(=O)NO)cc1	-36	96	0.3	104	-5	i	0.78
COc1ccc2ccc(=O)oc2c1	38	113	0.1	104	-13	i	0.76
